Source: PubChem (ICCB-Longwood Screening Facility, Harvard Medical School)
KSHV LANA nucl = LANA-nucleosome interaction inhibition | FITC-LANA1-23 / chicken nucleosome fluorescence polarization; stronger effect = lower value | z-score (test concentration not listed) | hit rate 0.3% among 51,000;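 active = both repeat wells score below -2 in polarization z-score versus plate sample wells, excluding overly bright wells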;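 note: 100 nL library stock added to about 30 µL; numbers are from one replicate; some results filed as inactive read as strong as hits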
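System – purified chicken nucleosomes with FITC-labelled LANA N-terminal peptide (1-23) · Amount – 240 nM purified chicken nucleosomes (480 nM peptide binding sites), final · Also added – 50 nM FITC-LANA1-23 probe · Medium – TEN-BT buffer, pH 7.5 · Incubation – compound with peptide–nucleosome mix 10–45 min at room temperature · Detection – fluorescence polarization, ex 480 nm, em 535 nm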
Ab BasE inh = blocks the Acinetobacter baumannii siderophore enzyme BasE; purified BasE, fluorescence polarization binding displacement; inhibition, % (concentration not given with the values); hit rate 0.1% among 84,000;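 active = both replicates above 25% with normal brightness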;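 note: 0% = negative plate control signal and 100% = positive plate control signal; stock transfer was 100 nL into about 30 µL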
The depositor's hits bear a star; nt = no result given.

Sample of the layout:
SMILES | KSHV LANA nucl | Ab BasE inh
Nc1nnc(SCC(=O)Nc2ccccc2N2CCOCC2)s1 | 1.4 | -5.5
Cc1cc(C)nc(Sc2ccc3nnnn3n2)n1 | -1.6 | 1.0

The list itself (from the top)
SMILES | KSHV LANA nucl | Ab BasE inh
Nc1nnc(SCC(=O)Nc2ccccc2N2CCOCC2)s1 | 1.4 | -5.5
Cc1cc(C)nc(Sc2ccc3nnnn3n2)n1 | -1.6 | 1.0
c1cc(-c2nnc3n2CCC3)ccn1 | nt | 0.1
COc1ccc(C2(O)CCN(C(=O)c3ccc4c(c3)OCO4)CC2)cc1 | 0.83 | 2.0
Cc1cc(C)c(NC(=O)/C=N/OCn2nnc3ccccc3c2=O)c(Cl)c1 | nt | 1.3
COC(=O)c1cc(OC(=O)CCN2C(=O)C3CC=CCC3C2=O)cc(C(=O)OC)c1 (stereo unspecified) | nt | -0.7
Cc1ccc(-n2c(O)c(C=Nc3ncnc4nc[nH]c34)c3ccccc3c2=O)cc1C | nt | -1.7
CCOC(=O)c1oc2ccccc2c1COC(=O)c1cccc(-n2cnnn2)c1 | nt | -0.4
CC(N=C1SCCN1C(=O)/C=C/c1ccco1)c1ccccc1 (stereo unspecified) | nt | -3.4
CCCc1cc(-c2ccc(O)c(OCC)c2)c(C#N)c(N)n1 | -1.1 | -0.9
Cn1ccc(C(=O)OCC(=O)Nc2ccc(S(N)(=O)=O)cc2)n1 | 0.17 | -1.4
CCC(C)(C)NC(=O)c1cccc(S(=O)(=O)N2CCN(c3ccc(F)cc3)CC2)c1 | nt | 2.2
CN(C)S(=O)(=O)N=C1C=CC(=NS(=O)(=O)N(C)C)C=C1 | nt | 5.0
CCOC(=O)N1CCC(NC(=O)c2cccs2)CC1 | 0.19 | nt
O=C(CCCc1nc2ccccc2c(=O)[nH]1)Nc1ccc(F)c(Cl)c1 | nt | -3.4
CCc1nc2ccccc2c(NC(=O)CN(CC)CC)c1C | 1.1 | -4.6
CC12CCC(=O)N1c1ccccc1C(=O)N2c1ccc(F)cc1 (stereo unspecified) | nt | -2.8
O=C(NC1CCCC1)C(c1ccc(Cl)cc1)N1CCCCC1 (stereo unspecified) | 1.7 | -3.5
O=C1CCN(C(=O)c2ccc(-c3nc4ccccc4s3)s2)CC1 | nt | -1.9
CCOc1ccc(N(CC)C(=O)COc2cc(=O)n(C)c3ccccc23)cc1 | -0.47 | -0.2

Record cards (already shown). Screens in order: KSHV LANA nucl	Ab BasE inh
Profile of CC(N=C1SCCN1C(=O)/C=C/c1ccco1)c1ccccc1 (stereo unspecified) : nt	-3.4
Profile of O=C(NC1CCCC1)C(c1ccc(Cl)cc1)N1CCCCC1 (stereo unspecified) : 1.7	-3.5
Profile of COC(=O)c1cc(OC(=O)CCN2C(=O)C3CC=CCC3C2=O)cc(C(=O)OC)c1 (stereo unspecified) : nt	-0.7
Profile of COc1ccc(C2(O)CCN(C(=O)c3ccc4c(c3)OCO4)CC2)cc1 : 0.83	2.0
Profile of CCOC(=O)N1CCC(NC(=O)c2cccs2)CC1 : 0.19	nt

(further entries)
SMILES | KSHV LANA nucl | Ab BasE inh
Cc1nnc(NC(=O)c2ccc3c(c2)SC2=NS(=O)(=O)CCN23)s1 | nt | -0.2
CC(Nc1ccc(Br)cn1)c1cc(Cl)ccc1O (stereo unspecified) | -0.47 | 1.6
CC1CC(C)CN(Cc2cc(Cl)c(O)c(Cl)c2)C1 (stereo unspecified) | 0.87 | nt
COc1ccc(NC(=O)CSCc2ccc(C)cc2)cc1 | 0.4 | -0.7
CCn1c(SC(C)C(=O)NC(N)=O)nc2ccccc21 (stereo unspecified) | nt | 1.2
CCc1ccc(Nc2nc(-c3ccccc3)cc(=O)[nH]2)cc1 | -0.12 | 1.8
COC(=O)c1c(NC(=O)c2ccc(C)cc2)sc(C)c1C | nt | -5.3
O=C(Nc1cccc(-c2csnn2)c1)c1cccs1 | -0.59 | 0.2
COc1cc2c(cc1OC)C1CN3CCc4cc(OC)c(OC)cc4C3CN1CC2 (stereo unspecified) | nt | 1.7
N#C/C(=C/c1cn(-c2ccccc2)nc1-c1cc2ccccc2o1)S(=O)(=O)c1ccc(Cl)cc1 | -1.1 | 3.8
COc1ccc(CNC(=O)c2ccc(CNC(N)=O)cc2)cc1 | nt | 1.7
CCN(CC)S(=O)(=O)c1cccc(C(=O)NC(C)C(c2cccs2)N2CCCC2)c1 (stereo unspecified) | nt | 3.9
FC(F)(F)c1cccc(N2CCN(CCN3CCOCC3)CC2)c1 | -1.6 | 1.2
CCC(CC)C(=O)N1CC(=O)Nc2ccc(F)cc2C1c1ccccc1 (stereo unspecified) | -1.1 | -2.6
COC(=O)C(Cc1ccccc1)NC(=O)c1n[nH]c(=O)c2ccccc12 (stereo unspecified) | nt | 3.7
CC1CC(C)CN(S(=O)(=O)c2ccc(NC(=O)CNC(=O)c3ccco3)cc2)C1 (stereo unspecified) | nt | -1.7
O=C(O)C12CC3CC(C1)CC(n1ncc(NCc4ccc5c(c4)OCO5)c(Cl)c1=O)(C3)C2 | -0.23 | 2.3
CC1=C(C(=O)Nc2ccc(C)cc2)C(c2ccc(C)o2)C2=C(CC(C)(C)CC2=O)N1 (stereo unspecified) | -1 | -0.4
COC(=O)C1=C(C)Nc2ncnn2C1/C=C/c1ccccc1 (stereo unspecified) | 0.32 | -1.3
O=C(CC(SCc1ccco1)c1ccc(O)cc1)c1ccco1 (stereo unspecified) | nt | 3.3
C[n+]1ccccc1C=NO | 0.2 | nt
Cc1nn(Cc2ccc(C(=O)Sc3ccc(C(F)(F)F)cn3)o2)c(C)c1Br | nt | -3.5
CNC(=O)Nc1c[nH]c2cc(Cl)ccc2c1=O | 0.1 | 0.6
Cc1ccc2nc(C(F)(F)F)cc(N3CCN(/C=C(/C#N)S(=O)(=O)c4ccccn4)CC3)c2c1 | nt | -1.4
O=C(NCCCO)c1ccc(CSc2nc3ccccc3c(=O)[nH]2)cc1 | -0.12 | 6.5
O=C(COC(=O)c1cc(=O)[nH]c2ccccc12)NCc1ccco1 | nt | 0.6
O=c1cc(NCc2ccccc2)nc2ccccn12 | nt | 0.2
Cc1ccc2cc(C#N)c(SCC(=O)Nc3ccccc3)nc2c1 | -0.62 | -0.9
COC(=O)c1cn(Cc2cc(OC)ccc2OC)cc(F)c1=O | 0.52 | 1.8
Cc1oc2cc(O)ccc2c(=O)c1Oc1ccc(Cl)cc1 | nt | 1.5
Cc1onc(-c2c(Cl)cccc2Cl)c1C(=O)N=C(N)N1CCCC1 | nt | -0.1
CC(NC(=O)C1CCCC1)c1ccccc1 (stereo unspecified) | 0.3 | -0.3
Cc1ccc(-c2nc3ccccc3o2)cc1NC(=O)c1ccc2c(c1)OCO2 | 0.83 | -1.4
Cc1cc(C)nc(N/C=C(\C#N)C(=O)c2ccoc2C)n1 | -0.7 | 3.4
COc1ccc(C(=O)c2c(C(F)(F)F)oc3c2C(=O)c2ccccc2C3=O)cc1OC | 0.065 | 2.3
O=C(CCC1CCCC1)NCc1ccccn1 | -1.6 | 4.7
Cc1ccc(OCc2nnc(SCC(=O)N(C)Cc3ccc(Cl)s3)n2N)c(C)c1 | nt | -2.3
FC(F)(F)c1cc(-c2ccc3ccccc3c2)nn1C(=S)N1CCOCC1 | nt | 1.6
Cc1nc(SC(C)C(=O)NC2(C#N)CCCCC2)c2ccccc2n1 (stereo unspecified) | nt | 0.9
CCOC(=O)C1=C(C)N2CCN=C2S1 | nt | 1.3
OC(CNCc1cn(-c2ccccc2)nc1-c1cccs1)CN1CCOCC1 (stereo unspecified) | nt | -2.1
CCn1c(CSc2nnc3ccccn23)nc2cc(S(=O)(=O)N(C)C)ccc21 | nt | 3.7
Nc1cc2c(cc1Cl)OCCO2 | 0.078 | 0.2
Cc1ccc(CNCCc2cccs2)s1 | nt | -1.6
Cc1cc(=O)oc2cc(OCC(=O)c3cccs3)ccc12 | nt | 0.9
Cc1ccc2oc(-c3ccc4c(c3)OCO4)cc(=NC(C)C(=O)O)c2c1 (stereo unspecified) | nt | -1.7
CSc1ccccc1NC(=O)CC1Nc2ccccc2NC1=O (stereo unspecified) | -0.23 | 1.9
Cc1cc(C)cc(N2CC34C=CC(O3)C(C(=O)OCC(=O)NC3CCCC3)C4C2=O)c1 (stereo unspecified) | -0.99 | 1.2
COc1ccc(/C=C(/NC(=O)c2ccccc2)C(=O)N2CC3(C)CC2CC(C)(C)C3)cc1 (stereo unspecified) | nt | 0.3
CNC(=O)c1sc(Nc2ccc(OC)cc2)nc1C | nt | 0.6
CN(C)CCCNc1nc(-c2cccnc2)nc2ccccc12 | 0.21 | -8.2
NC(=O)c1ccc(NC(=O)c2ccccc2C(=O)O)cc1 | -0.046 | -2.7
O=C1NC(c2ccco2)Nc2ccccc21 (stereo unspecified) | 0.47 | 0.8
OCc1ccccc1CNc1ccc(F)cc1 | -1.2 | -1.4
COc1ccc(C(=O)OCC(=O)Nc2ccc(N(C)C)cc2)cc1 | nt | -4.3
O=C1[C@H]2CSC3(C(=O)c4ccccc4C3=O)N2C(=O)[C@H]2CSC3(C(=O)c4ccccc4C3=O)N12 | 0.098 | 4.0
CC(N=C1NC(C)(C)Cc2ccccc21)C(=O)O (stereo unspecified) | -1 | -0.2
O=C(O)c1ccc2c(c1)nc1n2CCCC1 | -1.6 | -0.3
CC(C)c1cc(N)cc(C(C)C)c1O | 0.34 | 0.0
COc1cc(C(=O)/C=C/Nc2cc(C)ccc2O)cc(OC)c1OC | -0.62 | 1.8
Later entries:
SMILES | KSHV LANA nucl | Ab BasE inh
CCC(CC)c1nnc(NC(=O)Cc2csc(C)n2)s1 | -0.16 | -2.6
Cn1cc(S(=O)(=O)NCC2CCCO2)c(=O)n(C)c1=O (stereo unspecified) | -0.2 | 1.5
O=C(Cc1ccc(CC(=O)c2ccccc2)cc1)c1ccccc1 | nt | 0.9
O=C(NCc1nc2ccccc2[nH]1)c1ccc(S(=O)(=O)N2CCCC2)cc1 | nt | -2.3
CC(C)N(C(C)C)S(=O)(=O)c1ccc(NCCc2ccc(S(N)(=O)=O)cc2)nc1 | nt | 0.4
O=C(Nc1ccccc1N1CCN(c2ccccc2)CC1)c1ccccc1 | 2.1 | -1.8
COc1ccc(/C=C/C(=O)N2c3ccccc3Sc3ccccc32)c(OC)c1 | nt | 1.6
Cc1cc(/C=C2/SC(=O)N(C(C)C)C2=O)c(C)n1-c1ccncc1 | nt | 0.5
O/N=C/c1cccn1-c1ccccc1F | 0.75 | nt
N#Cc1cccc2c1[nH]c1ccc(Cl)cc12 | 1.2 | 0.2
CC(=O)OC(C(=O)Nc1nc2ccccc2s1)c1ccccc1 (stereo unspecified) | nt | 0.7
NC(=O)C(C(=O)/C=C/c1ccc(F)cc1)=C1SCS1 | nt | -1.6
CC12CCC(=O)N1C(C(=O)OCC(=O)N1c3ccccc3NC(=O)C1(C)C)CS2 (stereo unspecified) | nt | 2.2
Cc1cccc(NC2CC(=O)N(c3cccc(Cl)c3)C2=O)c1 (stereo unspecified) | -0.26 | -0.9
CCC(C)c1ccc(NC(=O)CSc2nncn2N)cc1 (stereo unspecified) | 0.051 | 1.3
CCOc1ccc(/C=C/C(=O)NCc2ccco2)cc1OC | 0.029 | -1.5
CN1C(=O)/C(=C/c2cn(CC(=O)N3CCOCC3)c3ccccc23)C(=O)NC1=S | nt | 1.6
O=C1CC2(CCN(C(=O)Cc3ccccc3)CC2)Oc2ccccc21 | -1.2 | -1.6
Cc1noc(C)c1CC(=O)N(Cc1ccccc1)c1nc2c(s1)CCCC2 | nt | 1.0
O=C1NCCN1CCNS(=O)(=O)c1ccc(N2C(=O)CCC2=O)cc1 | 1.8 | -3.2

Retrieved one by one from the entries so far:
SMILES | KSHV LANA nucl | Ab BasE inh
O=C(CC(SCc1ccco1)c1ccc(O)cc1)c1ccco1 (stereo unspecified) | nt | 3.3
Cc1nn(Cc2ccc(C(=O)Sc3ccc(C(F)(F)F)cn3)o2)c(C)c1Br | nt | -3.5
Cn1ccc(C(=O)OCC(=O)Nc2ccc(S(N)(=O)=O)cc2)n1 | 0.17 | -1.4
CCN(CC)S(=O)(=O)c1cccc(C(=O)NC(C)C(c2cccs2)N2CCCC2)c1 (stereo unspecified) | nt | 3.9

Additional structures follow:
SMILES | KSHV LANA nucl | Ab BasE inh
CC1=NN(C(=O)c2ccccc2)C(O)(c2ccc(Cl)cc2)C1 (stereo unspecified) | nt | 1.6
O=C(NCc1cn2ccsc2n1)Nc1ccc(Cc2ccc(NC(=O)NCc3cn4ccsc4n3)cc2)cc1 | nt | 1.4
NOCc1ccccc1C(F)(F)F | -0.51 | nt
O=C(CCc1nnc2ccc(N3CCCCC3)nn12)N1CCCC1 | 1.6 | 1.5
CCN=C1SC(CC(=O)Nc2sc(C)c(C)c2C(=O)OCC)C(=O)N1CC (stereo unspecified) | -0.33 | -0.3
O=C(O)C1CSC2(C(=O)O)CCC(=O)N12 (stereo unspecified) | nt | -1.7
CCOc1ncccc1C(=O)OCc1cc(=O)n2cc(Br)ccc2n1 | nt | 0.4
Nc1ccnn1CC1CCCCC1 | nt | 1.6
Cc1cccc(-c2noc(CN(C(=O)Cc3ccccc3)C(C)C)n2)c1 | 0.66 | 1.3
COc1cccc(C(N)=O)c1OCC(=O)N(C1CCCCC1)C1CCCCC1 | nt | 1.8
NS(=O)(=O)c1ccc(NC(=O)CN2CCCCCC2)cc1 | nt | 3.1
COc1cc(/C=c2\sc3nc(-c4ccccc4C)nn3c2=O)cc(Br)c1OC(C)=O | nt | -0.1
O=C1O/C(=C\c2ccccc2)c2ccccc21 | 0.019 | 0.7
Cn1c(SCC(=O)NCCC2=CCCCC2)nc2sccc2c1=O | nt | -2.9
O=c1[nH]nc(N2CCSCC2)[nH]1 | nt | 1.8
Cn1c(Cc2noc(-c3ccccc3)n2)nc2ccccc21 | 0.26 | -5.7

Not all compounds are listed, so the mix of outcomes need not match the whole.
